Screens as filed in PubChem BioAssay.
B2AR ag – human beta-2 adrenergic receptor agonism by FAP; P07550; AID 504454; response, % (concentration not given with the values); Am2.2-beta2AR cells, FAP receptor internalization, flow cytometry; reference of the scale not given here; actives 0.43% (n = 340,000);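 active = response above a set limit, near 3 SD of response in nonfluorescent compounds, cut at about 42% in these data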;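 note: stock transfer was 100 nL into about 11 µL; a reference agonist was the positive control; negative values mostly stem from fluorescent compounds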
Target sequence (P07550 whole entry, looked up): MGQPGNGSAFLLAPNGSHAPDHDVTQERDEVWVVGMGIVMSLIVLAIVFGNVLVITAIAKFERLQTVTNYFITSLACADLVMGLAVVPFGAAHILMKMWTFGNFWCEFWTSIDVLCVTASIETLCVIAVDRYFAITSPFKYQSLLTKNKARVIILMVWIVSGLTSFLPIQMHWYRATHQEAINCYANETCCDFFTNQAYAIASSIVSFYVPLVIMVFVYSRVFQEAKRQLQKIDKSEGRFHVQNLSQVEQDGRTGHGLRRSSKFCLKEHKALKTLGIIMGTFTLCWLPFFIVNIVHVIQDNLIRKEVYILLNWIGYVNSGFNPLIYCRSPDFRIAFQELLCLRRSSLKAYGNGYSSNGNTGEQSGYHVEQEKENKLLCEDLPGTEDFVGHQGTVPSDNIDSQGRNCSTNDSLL
A1 inh – inhibitors of the anti-apoptotic protein A1, read as caspase activation. MEF A1-2A-BIM cells, Caspase-Glo 3/7 luminescence, 3 h; percent of clofoctol response, vehicle zero. caspase activation, % (test concentration not listed). actives 0.066% (n = 330,000). AID 2462;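 active = over half of replicate activation scores above 10%, or exactly half above 10 with the replicate mean above 10; inconclusive = replicate mean below 10 yet half the replicates above 10; inactive = over half of replicates below 10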;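 note: wells of about 30 µL received 50 nL stock; many hits fall short of the cut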
Calb FLC – affects C. albicans growth with fluconazole; C. albicans CaCi-2 (fluconazole-resistant clinical isolate) + fluconazole, Alamar Blue growth, 48 h; growth inhibition, % (test concentration not listed); actives 0.57% (n = 300,000); AID 1979;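 active = most replicates above 75%; inconclusive = exactly half above 75%; inactive = most below 75%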;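 note: all wells also contain fluconazole at 8 µg/ml as a sub-toxic cotreatment; 0% = median of DMSO wells and 100% = median of geldanamycin control wells; wells of about 8 µL received 7.5 nL stock; the first replicate is given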
ALR H2O2 inh – human ALR oxidase inhibition via reduced H2O2; P55789; purified ALR, DTT oxidation, H2O2 HRP-luminol luminescence; inhibition, % (concentration not given with the values); actives 3.8% (n = 290,000); AID 485317;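 active = mean and each replicate at 75% or more; inconclusive = only one of the two met; inactive = neither met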;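 note: stock transfer was 7.5 nL into about 7.5 µL; 0% = neutral wells and 100% = wells with inactivated enzyme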
Target sequence (P55789 whole entry, looked up): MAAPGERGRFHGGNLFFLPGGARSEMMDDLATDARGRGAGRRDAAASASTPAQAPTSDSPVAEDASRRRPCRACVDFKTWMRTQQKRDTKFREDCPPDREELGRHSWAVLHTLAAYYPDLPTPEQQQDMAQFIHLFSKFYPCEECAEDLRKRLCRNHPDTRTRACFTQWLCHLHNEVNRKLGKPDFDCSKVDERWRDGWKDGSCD
LANA-H2B inh – blocks KSHV LANA binding to histone H2A/H2B | cell-free LANA-H2A/H2B peptide, fluorescence polarization | inhibition, % (test concentration not listed) | actives 0.6% (n = 320,000) | AID 2629 | Q9QR71; in the data active = inhibition mostly above about 10%, no sharp cut-off; inactive = mostly below about 6.7%;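 note: stock transfer was 7.5 nL into about 10 µL; 0% = median of vehicle wells and 100% = median of positive control wells; one replicate is shown; the record names a cut of 25% in any replicate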
Ecoli rRNA inh – selective bacterial rRNA inhibition in E. coli | GFP signal change (wild-type ribosome), % (no concentration beside the values) | AID 720706 | E. coli WT GFP vs humanized-ribosome RFP mutants, fluorescence, 24 h; stronger effect = lower value; DMSO median 0, no signal -100 | actives 1.6% (n = 350,000);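 active = significant combined selectivity score with lowered wild-type GFP, culture density cut under 30%, mutant RFP and density less affected; inactive = any of these conditions unmet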; note: one replicate is shown; some compounds called inactive have numbers as strong as hits
T cruzi repl – T. cruzi replication inhibition; T. cruzi beta-gal in NIH3T3, luminescence, 90 h; inhibition, % (test concentration not listed); actives 1.4% (n = 300,000);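 active = mean inhibition across valid replicates above about 55%, limit read from the data; inconclusive = mean below that limit but half or more replicates reach it; inactive = mean below it, under half of replicates reach it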;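 note: signal also drops with host cell toxicity which is not excluded here; 0% = plate median of DMSO wells and 100% = zero luminescence signal; higher percent means less beta-gal luminescence so fewer parasites; stock transfer was 50 nL into about 50 µL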
Beta apoptosis – beta cell apoptosis inhibition. INS-1E cytokine-induced death, ATP luminescence, 48 h; percent of positive-control rescue, neutral wells zero. protection from apoptosis, % (concentration not given with the values). actives 0.8% (n = 300,000). AID 435005;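 active = all replicates at 75% or more, or half of them and the mean; inconclusive = half reach 75% but not the mean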;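 note: 0% = cytokine-treated negative control wells and 100% = positive control rescue; higher means more ATP so stronger rescue from cytokine killing; wells of about 40 µL received 100 nL stock; the first replicate is given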
Ecoli rRNA inh OD600 – further read-out of Ecoli rRNA inh, marked with its call; OD600 change, %; measured here: OD600 growth;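 optical density of the mix in the first replicate; 0 = DMSO median and -100 = no signal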
Ecoli rRNA inh RFP – recorded beside Ecoli rRNA inh, whose call it bears; RFP signal change, %; measured here: RFP humanized mutant strains;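 first replicate; 0 = DMSO median and -100 = no signal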
Numbers without * were called inactive; ? = inconclusive; nt = not tested or not shown.

entry	SMILES	B2AR ag	A1 inh	Calb FLC	ALR H2O2 inh	LANA-H2B inh	Ecoli rRNA inh	Ecoli rRNA inh OD600	Ecoli rRNA inh RFP	T cruzi repl	Beta apoptosis
1	O=C(NCCCN1CCC(Cc2ccccc2)CC1)C1CC(=O)N(C2CCCCCC2)C1 (configuration not stated)	0.4	0.2	4.6	-29.7	3.5	nt	nt	nt	26.9	0.3
2	Cn1c(N)nc2ccccc2c1=O	1.2	-0.4	-1.5	-7.1	-2.2	17.9	-6.2	1.1	-11.6	-0.6
3	Cc1nn(C)c(C)c1/C=N/O	-8.4	0.5	6.2	-5.0	0.4	nt	nt	nt	10.9	2.2
4	CCN(CCNC(=O)CCCn1nc(C)n2c(cc3sccc32)c1=O)c1ccccc1	-0.6	-0.1	-3.9	98.4*	-3.6	-4.8	-10.3	7.3	12.5	3.9
5	COc1ccc(NC(=O)c2cccc(S(=O)(=O)NCc3ccco3)c2)c(OC)c1	-0.8	1.3	7.4	nt	nt	-1.6	5.3	1.3	-0.5	0.4
6	CN(c1ccc(C(=O)NC2CC2)cc1)S(=O)(=O)c1ccccc1	-8.4	0.1	-6.5	-13.6	-2.0	nt	nt	nt	-4.3	-0.4
7	NC(=O)COc1ccc(/C=N\NC(=O)c2ccc(-c3ccccc3)cc2)cc1	1.8	-0.4	-0.8	1.1	-4.3	7.0	9.9	1.1	-7.8	-2.4
8	COc1ccc2nc3c(cc2c1)c(NC(=O)c1cccs1)nn3CC(C)C	6.5	-0.6	-0.9	3.8	2.2	nt	nt	nt	?	6.8
9	COc1cc(C)ccc1OCCCCOc1ccccc1C(C)=O	-9.8	0.5	2.9	1.3	3.2	-7.9	-3.3	4.8	24.6	4.8
10	COc1ccc(/C=C2\CCc3ccccc3C2=O)cc1OC	-1.1	-6.6	13.7	-19.9	-2.2	nt	nt	nt	-19.3	3.9
11	Cc1ccc(-c2cc(Cc3ccc(F)cc3)c(=O)[nH]n2)cc1	6.1	0.5	2.0	0.1	0.8	-8.7	0.0	3.9	-1.9	-6.9
12	CCC(=O)Nc1sc2c(c1C#N)CCCCC2	-12.5	-1.0	-8.4	20.4	-0.9	nt	nt	nt	-2.5	3.4
13	O=C(Nc1ccncc1)c1cc(F)cc(F)c1	10.8	-0.1	-7.0	-10.6	0.2	nt	nt	nt	24.2	-2.8
14	c1ccc(-c2cn3c(n2)CCC3)cc1	-0.4	0.7	-2.0	-4.5	-1.5	nt	nt	nt	-7.6	0.1
15	O=C(NCc1ccccc1)c1nc[nH]c1C(=O)N1CCN(c2ccccc2)CC1	-2.9	0.8	nt	97.7*	-3.9	-13.9	-8.8	-0.9	nt	-2.5
16	Cc1cccc(N2CCN(S(=O)(=O)c3c(C)nc4scc(C)n4c3=O)CC2C)c1 (configuration not stated)	6.7	0.8	-4.8	68.3	-1.9	-21.3	-12.9	10.9	1.7	1.7
17	CC(C)OCCCN1CC(=O)N2C(c3cccc([N+](=O)[O-])c3)c3[nH]c4ccccc4c3C[C@H]2C1=O (some centres not stated)	0.0	0.1	9.4	-10.1	6.5	-8.7	-15.3	6.2	-2.5	1.8
18	Nc1[nH]n(-c2ccccc2)c(=O)c1N=Nc1ccccc1	-1.1	-2.5	-0.1	-4.4	-2.7	-5.1	15.8	2.8	5.8	-3.4
19	CCn1c(SCC(=O)NC2CC2)nnc1-c1ccc(OC)cc1	3.2	0.7	-8.1	13.1	-3.1	-1.1	-0.2	-2.5	-8.5	-4.6
20	CC1CCCCN1C(=O)CN(C)S(=O)(=O)c1cccc2nsnc12 (configuration not stated)	2.6	-0.6	3.1	-1.6	5.2	13.4	7.8	3.6	-20.5	-5.4
21	CCCCC(=O)N1C/C=C\C(c2ccc(OC)cc2)N(Cc2ccc(F)cc2)C(=O)[C@H]1Cc1ccccc1 (some centres not stated)	2.1	0.3	9.3	17.7	4.5	nt	nt	nt	63.5*	98.9*
22	Cc1ccc(C(C(=O)NC2CCCCC2)N2CCCC2)cc1 (configuration not stated)	-0.4	-0.8	-7.4	-5.5	-1.2	nt	nt	nt	-15.2	3.7
23	CCN(CC)S(=O)(=O)c1cc(C(=O)OCC(=O)Nc2ccc(-c3nc4ccc(C)cc4s3)cc2)ccc1F	7.7	-7.1	4.9	nt	1.3	nt	nt	nt	-2.2	2.5
24	c1ccc(-n2ncc3c2ncn2nc(-c4ccco4)nc32)cc1	5.0	0.5	-12.5	19.0	-6.2	nt	nt	nt	-4.6	4.2
25	O=C(NCCSCc1c(F)cccc1Cl)Nc1ccccc1	-12.1	0.5	-15.2	-7.6	1.8	nt	nt	nt	10.8	-7.6
26	COc1ccc(/C=C/C(=O)c2cc3cccc(OC)c3oc2=O)cc1	8.6	-0.7	15.9	1.6	-19.0	4.9	2.0	0.8	-14.6	nt
27	O=C(COc1ccc(S(=O)(=O)Nc2ccccc2)cc1)NCc1ccccn1	-1.3	0.3	-28.2	0.3	-7.1	19.2	6.5	-1.1	-13.2	1.1
28	O=C(Cc1ccccc1)Nc1ccc2oc(-c3ccncc3)nc2c1	2.5	-1.1	6.3	-43.1	-3.5	nt	nt	nt	-7.3	0.3
29	Cn1c(=O)[nH]c(=O)c2c1nc1n2CCCN1Cc1ccccc1	-2.2	0.5	-12.6	4.5	-0.4	7.0	10.6	0.0	5.0	1.5
30	COc1ccc(C)cc1NC(=O)CCNS(=O)(=O)c1cccc(C(F)(F)F)c1	-4.2	-0.2	-0.9	-2.3	7.5	-3.7	-25.9	3.1	13.7	5.5
31	Cc1cc(OC(F)F)ccc1NC(=O)Nc1ccc([N+](=O)[O-])cc1	4.6	-1.5	-10.8	nt	3.8	nt	nt	nt	15.3	64.2
32	O=C(Cn1nnc2ccccc2c1=O)Nc1cc(C(F)(F)F)ccc1N1CCOCC1	-8.6	0.6	-8.0	-10.8	15.8*	nt	nt	nt	-0.4	8.1
33	CN1C(=O)C(N=Nc2ccccc2C(=O)O)N(C)C1=S (configuration not stated)	-2.1	-7.4	27.5	98.0*	-10.3	-37.1	-45.0	-9.6	15.0	3.6
34	CCOC(=O)CNC(=O)CSc1nc(N(C)C)nc(N2CCOCC2)n1	6.5	1.0	-1.2	-5.0	-2.6	nt	nt	nt	0.0	nt
35	CC(=O)c1cccc(NC(=O)NC(C)c2ccncc2)c1 (configuration not stated)	15.8	-0.1	?	-9.8	0.2	nt	nt	nt	2.8	0.2
36	CC(C)c1ccc(NC(=S)NN2C(C)CCCC2C)cc1 (configuration not stated)	-0.5	0.4	8.1	-0.6	-0.3	6.8	-5.2	1.0	4.6	nt
37	O=C(CN1CCN(Cc2ccc(Cl)cc2)CC1)N1CCc2ccccc21	-0.2	0.4	-25.3	-10.4	-1.6	7.8	9.7	1.2	28.4	-3.1
38	COc1cc(NC(=O)COc2ccc(Cl)cc2)ccc1-c1cc2ccccc2oc1=O	31.4	-0.2	45.7	-0.1	-5.2	9.7	10.8	0.9	30.2	-9.4
39	CC1(C)CC(=O)C(C=NC2CC(C)(C)NC(C)(C)C2)=C(O)C1	1.4	-0.5	-3.2	-5.1	2.1	nt	nt	nt	-11.3	-2.5
40	COc1ccc(-c2noc(CCC(=O)NCCCN3CCN(c4ccccc4F)CC3)n2)cc1	2.2	-2.2	13.3	2.5	1.5	-4.2	-8.9	-1.8	-12.9	14.8
41	CCN1CCC(NC(=O)Nc2ccc(F)cc2)CC1	1.8	-0.3	-4.3	-4.1	3.4	19.1	18.4	-1.6	-3.5	-3.0
42	O=C(Cc1cccc2ccccc12)Nc1ccccc1C(=O)O	-1.4	-0.2	-14.1	18.8	-2.0	-35.0*	-14.2*	-5.7*	-11.3	-4.5
43	Cn1c(=O)c([N+](=O)[O-])c(NCC(O)c2ccccc2)c2ccccc21 (configuration not stated)	-6.7	-0.6	3.2	-65.2	-2.8	nt	nt	nt	10.2	-4.0
44	CCOC(=O)c1cnc2ccc(C(=O)OC)cc2c1Nc1cccc(C(=O)O)c1	5.3	-0.4	-1.4	10.9	1.1	-7.8	-5.0	-5.4	42.5	-3.6
45	COc1ccc(CC(=O)Nc2nc(-c3ccc(F)c(F)c3)cs2)cc1OC	44.0*	-0.6	-11.5	-3.6	7.1	-42.2	-62.2	0.7	13.8	97.5*
46	COc1ccc(C(C)(C)C)cc1NC(=O)COc1ccc(-c2nnco2)cc1	5.1	-0.9	nt	-1.0	3.0	6.4	17.1	2.8	nt	1.2
47	CN(C(=O)CN1C(=O)CCSc2ccc(S(=O)(=O)N3CCCC3)cc21)c1ccccc1	17.4	0.1	-1.7	-5.9	2.8	-0.7	-12.0	5.1	9.5	0.6
48	CC(C)C(C(=O)NC1CCCC1)N(Cc1ccco1)C(=O)CNS(=O)(=O)c1ccccc1 (configuration not stated)	-2.0	-0.8	-4.4	-6.6	-1.7	2.8	14.6	-1.2	10.2	0.3
49	Cc1cs/c(=N/C(=S)Nc2ccccc2)n1C	-2.1	-5.2	16.9	-6.1	-0.5	nt	nt	nt	-7.2	3.2
50	O=C(c1ccc(S(=O)(=O)Nc2ccc(F)cc2)cc1)N1CCN(c2ccccn2)CC1	-15.2	-0.7	-3.2	nt	1.0	-20.7	-39.5	-3.7	-24.1	28.3
51	Cc1ccc(S(=O)(=O)N2CCN(S(=O)(=O)N3CCOCC3)CC2)cc1	3.6	0.4	-7.7	-5.8	-2.2	nt	nt	nt	7.2	-8.9
52	Cc1ccc(-c2csc(NC(CO)c3nc4ccccc4n3CCOCCO)n2)cc1 (configuration not stated)	0.8	-0.5	-17.9	33.3	-3.7	-2.6	-1.3	2.0	-5.7	-18.8
53	O=C(NC1CC1)C1CCN(C2CCN(Cc3ccccc3C(F)(F)F)CC2)CC1	1.0	0.3	-26.3	-0.7	-0.8	-3.8	-0.5	-2.5	0.6	-1.2
54	COc1ccc(CN(C)CC2CCCN(CCc3ccc(Cl)cc3)C2)cc1OC (configuration not stated)	5.4	0.2	-1.2	nt	2.2	6.2	11.6	-0.7	43.5	-5.8
55	CCN1C(=O)/C(=C2/C=CC=CN2C)OC1=S	1.0	0.2	4.7	1.9	-1.3	nt	nt	nt	-11.2	-6.0
56	Cc1sc2ncn3ncnc3c2c1C	-3.4	-0.4	-3.8	-7.2	15.2	nt	nt	nt	-0.2	-3.7
57	CCCCCCCCOc1ccc(C2OC34CCCCC3C(C#N)(C#N)C2(C#N)C(=N)O4)cc1 (configuration not stated)	9.9	0.8	-4.9	-17.1	3.8	nt	nt	nt	-22.2	-8.3
58	CCN(CC(=O)Nc1cc(Cl)ccc1C)C(=O)CCS(=O)(=O)c1ccc(C)cc1	-5.2	1.8	-1.7	2.4	-2.2	0.9	8.6	-0.5	2.6	0.2
59	Cc1ccc(NC(=O)CNC(=O)COc2ccccc2)nc1	-0.4	1.0	0.5	2.9	1.4	8.4	10.4	-1.3	-2.7	nt

A portion of the library; the hit share may differ from the screen's.
